UCH37 inh: inhibitors of human UCH37 deubiquitinase, primary screen, biochemical, Ub-AMC cleavage, fluorescence; Ubiquitin carboxyl-terminal hydrolase isozyme L5 (Homo sapiens), Q9Y5K5; purified proteasome/UCH37; inhibition, % (test concentration not listed); 330,000 compounds, 0.33% hits; AID 588478, 2011;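 active = mean of two replicates above 20%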;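 note: 0% = compound-free wells with enzyme and 100% = wells lacking proteasome; stock transfer was 100 nL into about 20 µL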
Target sequence (Q9Y5K5 whole entry, looked up): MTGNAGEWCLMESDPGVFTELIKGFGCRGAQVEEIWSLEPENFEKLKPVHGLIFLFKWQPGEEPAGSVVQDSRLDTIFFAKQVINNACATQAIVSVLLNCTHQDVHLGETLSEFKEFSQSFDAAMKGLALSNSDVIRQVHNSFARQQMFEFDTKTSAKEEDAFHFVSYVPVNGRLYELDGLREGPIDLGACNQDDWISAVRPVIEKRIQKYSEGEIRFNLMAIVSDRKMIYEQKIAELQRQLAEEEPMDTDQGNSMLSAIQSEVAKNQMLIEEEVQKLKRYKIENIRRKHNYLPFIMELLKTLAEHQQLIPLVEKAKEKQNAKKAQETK
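Material: Human UCH37 enzyme supplied as purified proteasome complex | Schedule: 30 min compound-proteasome preincubation then 25 min substrate reaction, room temperature | Detection: AMC fluorescence from Ub-AMC cleavage, excitation 355 nm, emission 460 nm | Benchmarks: Wells without proteasome as full block, compound-free enzyme plus substrate as uninhibited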
FGF22 binding: binders of human FGF22 protein, primary screen, FGF22 synaptogenesis inhibitor project, biophysical, thermal shift, single point; Fibroblast growth factor 22 (Homo sapiens), Q9HCT0; recombinant FGF22 thermal shift, SYPRO orange fluorescence; percent of sucrose octasulfate shift, DMSO zero; calls only at 9.99 µM; 340,000 compounds, 1.5% hits; AID 651658, 2012;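 active = melting point raised past a set limit in the mean and every replicate; inconclusive = no clear call; three in four hits are not shown here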
Target sequence (Q9HCT0 whole entry, looked up): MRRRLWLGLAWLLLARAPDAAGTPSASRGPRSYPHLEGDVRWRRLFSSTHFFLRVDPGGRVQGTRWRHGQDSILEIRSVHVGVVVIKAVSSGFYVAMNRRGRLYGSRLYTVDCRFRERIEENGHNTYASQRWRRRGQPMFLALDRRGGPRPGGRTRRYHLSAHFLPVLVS
AF4-AF9 inh: inhibitors of AF4 peptide binding to AF9, primary screen, biochemical, AlphaScreen, biotin-AF4 peptide, FLAG-AF9, single point; Protein AF-9 (Homo sapiens), P42568; inhibition, % at 10 µM; 350,000 compounds, 0.47% hits;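 active = every replicate reaching a set inhibition limit, whatever the replicate mean, cut at about 25% in these data; inconclusive = mean inhibition reaches that limit but some replicates miss it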;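 note: 0% = plate neutral control median and 100% = total signal loss; the record names both 10 and 1 µM as test concentration; the first replicate is given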
Target sequence (P42568 whole entry, looked up): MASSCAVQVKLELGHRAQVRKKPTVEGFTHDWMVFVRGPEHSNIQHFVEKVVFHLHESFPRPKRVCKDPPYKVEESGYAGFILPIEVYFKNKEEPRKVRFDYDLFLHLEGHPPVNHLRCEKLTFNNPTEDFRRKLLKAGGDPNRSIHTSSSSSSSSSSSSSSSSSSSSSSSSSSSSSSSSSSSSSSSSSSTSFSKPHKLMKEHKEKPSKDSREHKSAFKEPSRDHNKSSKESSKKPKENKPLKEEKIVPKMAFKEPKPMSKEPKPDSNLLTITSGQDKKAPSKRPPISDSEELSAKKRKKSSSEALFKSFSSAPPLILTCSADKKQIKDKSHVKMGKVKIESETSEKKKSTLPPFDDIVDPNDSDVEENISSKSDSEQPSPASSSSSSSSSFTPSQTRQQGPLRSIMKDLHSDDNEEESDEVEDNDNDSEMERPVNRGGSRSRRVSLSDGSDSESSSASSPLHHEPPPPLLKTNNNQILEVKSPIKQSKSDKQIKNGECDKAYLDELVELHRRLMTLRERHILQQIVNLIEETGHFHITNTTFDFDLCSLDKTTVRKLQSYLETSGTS
E coli growth: E. coli growth inhibition, primary screen, OD600. Escherichia coli growth, 23 h; stronger effect = lower value. OD600 absorbance (concentration not given with the values). 330,000 compounds, 0.21% hits. AID 1053175, 2014;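 active = OD600 absorbance below the run mean of sample wells minus 3.6 SD, in any replicate, cut at about 0.56 in these data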;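 note: stock transfer was 300 nL into about 60 µL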
Vif A3G: inhibitors of Vif binding to APOBEC3G peptide, primary screen, biochemical, TR-FRET, GST-Vif 1-94, biotin-A3G peptide, dose response retest (AID 1117319); TR-FRET GST-Vif / biotin-A3G peptide binding; higher % means a stronger effect; test concentration not given here; strong numbers were not always called active; Virion infectivity factor (Human immunodeficiency virus type 1 group M subtype B (isolate …; inhibition, %; hits with a dose series show IC50 in µM; 260,000 compounds, 0.57% hits;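 active = above the screen mean plus three standard deviations and confirmed in dose response; inconclusive = results disagree or hit not tested in dose response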;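 note: Vif residues 1-94 fused to GST binding biotinylated APOBEC3G peptide 110-148; 0% = full assay without inhibitor and 100% = GST in place of GST-Vif; retest series ran down from 100 µM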
RanGTP-Imp inh: inhibitors of RanGTP-importin-beta interaction, primary screen, biochemical, FRET, CFP-Ran, YFP-importin-beta, homogeneous; 300,000 compounds, 1.1% hits; Ran GTPase (GTP-bound) - importin-beta complex; cell-free CFP-Ran/YFP-importin-beta FRET ratio; inhibition, % (test concentration not listed);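 active = most replicates above 15%; inconclusive = exactly half above 15%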;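 note: 0% = DMSO wells and 100% = Ran loaded with GDP instead of GTP; wells of about 40 µL received 100 nL stock; the first replicate is given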
HNF4A DNA FP: change in binding of human HNF4A to DNA, primary screen, biochemical, fluorescence polarization, FITC-DNA. 1 h. activity change, % at 10 µM. 360,000 compounds, 0.3% hits. AID 1224865, 2016; in the data active = activity change above about 30%, passing the limit was not always enough;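 note: controls were the assay level and a saturating level of protein; the project sought stronger binding though the title names inhibitors; some compounds called inactive have numbers as strong as hits; positive values seem to mean higher polarization but the record does not say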
Numbers without * were called inactive; i = inactive; ? = inconclusive; . = not tested or not shown; & = joins results of further samples. An excerpt; rates above refer to the full screens.

SMILES	UCH37 inh	FGF22 binding	AF4-AF9 inh	E coli growth	Vif A3G	RanGTP-Imp inh	HNF4A DNA FP
O=C(CCN1CCCCO1)N1CCCC(Nc2cccc(F)c2)C1 (stereo unspecified)	.	i	-1.1	.	.	?	1.1
OC/C(Br)=C(\Br)CO	1.9	i	.	0.64	.	.	-1.4
Cn1c2c(c(O)c(-c3ccccc3)c1=O)C(=O)CC(C)(C)C2	2.1	.	.	0.675	3.8%	-2.1	-0.9
CCOC(=O)CNC(=O)N(C)[C@H]1C[C@H]2c3[nH]c4ccccc4c3CCN2C(=O)[C@H]1[C@H](C)O	.	i	-4.9	.	.	.	0.4
CC1=CCC2C(=O)N(CCc3c[nH]c4ccccc34)C(=O)C2C1 (stereo unspecified)	0.9	.	.	0.665	5.0%	-0.4	-0.7
O=C(NN1CCOCC1)c1ccc(Cl)cc1Cl	1.5	i	9.6	0.668	.	2.4	0.7
CC(=O)NCCOC(=O)Nc1cccnc1	5.3	.	.	0.674	0.5%	-4.6	1.7
Cc1ccc(N(CC(=O)Nc2ccc3c(c2)OCCO3)S(=O)(=O)c2c(C)n[nH]c2C)cc1	1.7	.	.	0.688	-3.1%	3.2	-3.5
COc1ccc(CCNC(=O)CSc2nnc3ccc(-c4cccnc4)nn23)cc1OC	1.6	i	4.0	0.685	14.8%	7.8	-3.4
CCC1CCCCN1CCCNC(=O)C1CCN(Cc2nc(-c3ccc(Cl)cc3)oc2C)CC1 (stereo unspecified)	2.7	.	.	0.675	.	3.1	3.5
Cc1ccc(Cn2c([N+](=O)[O-])cnc2C)cc1	.	.	.	.	-5.9%	?	1.9
CCOc1ccccc1NC(=O)CSc1nnc(CNC(=O)c2ccccc2F)o1	2.5	i	-3.2	0.649	.	-0.3	-0.1
COc1cccc(NC(=O)CNC(=O)Cn2cnc3sc4c(c3c2=O)CCCC4)c1	4.8	i	2.1	0.684	.	0.6	-7.7
CN(C(=O)COC(=O)COc1ccccc1Cc1ccccc1)c1ccccc1	-1.2	.	-1.2	0.624	0.1%	1.3	-2.5
CSCCC(NC(=O)COc1ccccc1)C(=O)O (stereo unspecified)	1.2	i	0.4	0.698	?	-2.7	0.1
CCCCOc1ccc(C(=O)NCC(=O)NC2CCCCC2)cc1	4.4	i	-3.3	0.715	.	.	-0.2
COCCNC(=O)COC(=O)c1cccnc1SC	1.6	i	-2.7	0.698	.	-1.4	-1.4
Cc1ccc(/C=C/C(=O)NCCCN2CCN(CCCNC(=O)/C=C/c3ccc(C)cc3)CC2)cc1	2.2	i	-4.5	0.703	.	3.2	0.6
CCCCN1C(=O)C(CC(=O)NC2CC2)CC(C(=O)N(C(C)C)C(C)C)=C1C (stereo unspecified)	.	i	-2.4	.	-1.5%	.	-1.8
Cc1nn2c(NCc3ccccn3)cc(C(C)C)nc2c1-c1ccccc1	-85.5	i	.	0.631	6.5%	2.3	-1.1
CC(C)(C)c1cc[n+](-c2[nH]c(=O)sc2/C=N/NC([S-])=Nc2ccccc2)cc1	.	i	-2.6	.	9.1%	-12.1	-33.8
COC(=O)C1=C(N)OC2=C(C(=O)CC(C)(C)C2)C1c1ccoc1 (stereo unspecified)	0.6	.	.	0.735	1.9%	-2.3	-2.5
CC(C)(C)n1nc2c(c1NC(=O)c1ccc(Br)cc1)CS(=O)C2 (stereo unspecified)	2.8	i	-9.4	0.717	16.8%	4.4	1.0
COc1ccc2ccccc2c1CNc1nnnn1C	1.8	i	-1.0	0.707	.	-4.6	-0.2
COC(=O)c1ccc(CNC(=O)COC(=O)C2CCC(C(C)(C)C)CC2)cc1 (stereo unspecified)	0.9	i	-24.3	0.689	.	-3.7	-2.5

Of the compounds above, these contain an aryl thioether with sulfur outside any ring.
SMILES	UCH37 inh	FGF22 binding	AF4-AF9 inh	E coli growth	Vif A3G	RanGTP-Imp inh	HNF4A DNA FP
COc1ccc(CCNC(=O)CSc2nnc3ccc(-c4cccnc4)nn23)cc1OC	1.6	i	4.0	0.685	14.8%	7.8	-3.4
CCOc1ccccc1NC(=O)CSc1nnc(CNC(=O)c2ccccc2F)o1	2.5	i	-3.2	0.649	.	-0.3	-0.1
COCCNC(=O)COC(=O)c1cccnc1SC	1.6	i	-2.7	0.698	.	-1.4	-1.4

New compounds follow.
SMILES	UCH37 inh	FGF22 binding	AF4-AF9 inh	E coli growth	Vif A3G	RanGTP-Imp inh	HNF4A DNA FP
CCN(C(=O)N1CCOCC1)c1ccccc1C	-1.4	i	2.9	0.674	-4.4%	-1.7	2.2
CCOCCCNC(=O)c1[nH]c(C)c(C(C)=O)c1C	1.6	.	.	0.672	-5.1%	-1.1	2.7
Cc1ccc(CSc2ccc(S(=O)(=O)N3CCCCC3)cn2)cc1	1.0	i	-1.2	0.664	-7.0%	.	-3.7
CC(=O)Nc1cccc(C(=O)N/N=C/c2cccc(C)n2)c1	.	i	-2.8	.	2.7%	1.2	0.6
CCOc1ccc(N2C(=O)CC(N)C2=O)cc1 (stereo unspecified)	4.4	.	.	0.705	19.6%	.	-2.4
CC1CN(C(=O)c2nn(C)cc2[N+](=O)[O-])CC(C)O1 (stereo unspecified)	3.2	.	.	0.788	20.6%	0.9	0.3
CSc1nc2ccc(NC(=O)C3CC(=O)N(Cc4ccco4)C3)cc2s1 (stereo unspecified)	1.3	.	.	0.678	5.2%	1.4	3.4
Cc1ccc(-n2[nH]c(C)c(C=Nc3ccc(C)cn3)c2=O)cc1	5.6	i	-4.8	0.69	0.8%	7.8	1.5
NC(=O)COc1ccc(/C=N\NC(=O)c2ccc(-c3ccccc3)cc2)cc1	.	i	-0.9	.	-0.4%	1.1	5.3
COc1cccc(CN(C)C(=O)c2cc(S(=O)(=O)N3CCN(c4ccccc4)CC3)ccc2Cl)c1	5.0	i	-0.2	0.704	.	-0.8	0.6
O=C(Oc1ccccc1)c1cc2ccccc2o1	-0.5	.	.	0.724	-2.5%	-4.0	0.7
Cc1cccc(NS(=O)(=O)c2ccc(C)c(C(=O)NCC(c3ccccc3)N(C)C)c2)c1 (stereo unspecified)	0.4	i	2.5	0.656	-1.3%	.	-2.8
Cc1oc(=O)cc(OCc2ccccc2)c1C	2.9	i	-1.6	0.676	-0.4%	.	-2.5
CCOc1ccc(/C(C)=N/NC(=O)C(OC)c2ccccc2)cc1 (stereo unspecified)	.	i	0.9	.	5.8%	3.7	-6.2
COc1ccc(OC)c(NC(=O)c2nc(-c3ccccc3)oc2C)c1	-7.8	i	-4.6	0.731	0.8%	1.2	3.8
CC1CCN(C(=O)Cn2c(SCC(=O)Nc3nccs3)nc3ccccc32)CC1	1.1	.	.	0.764	-0.1%	4.6	4.5
CC(C)NC(=O)N(C)C[C@H]1Oc2c(NS(=O)(=O)c3cn(C)cn3)cccc2C(=O)N([C@H](C)CO)C[C@@H]1C	7.2	i	-4.0&0.2	.	.	.	-0.2
Cc1ccc(NC(=O)CN2C(=O)/C(=C3\SC(=S)N(C4CCS(=O)(=O)C4)C3=O)c3ccccc32)cc1 (stereo unspecified)	4.9	i	8.9	0.733	8.0%	.	-2.8
COc1ccccc1NS(=O)(=O)c1ccc2oc(SCc3ccc(F)cc3)nc2c1	2.4	.	.	0.685	-10.0%	-0.1	1.6
Cn1c(CNC(=O)c2ccc3c(c2)OCO3)nnc1SCC(=O)Nc1ccc(F)cc1F	0.6	i	2.4	0.646	.	-5.2	1.6
N#Cc1c(N)oc(-c2ccco2)c1-c1ccco1	-21.4	.	.	0.725	?	-1.1	6.5
COC(=O)c1cc2c(-c3ccccc3)c(C)c3ccccn3c-2c1C(=O)OC	-0.9	.	.	0.756	-4.9%	27.1*	-4.7
CC1CCCCN1C(=O)CCC(=O)Nc1nnc(C2CCCCC2)s1 (stereo unspecified)	1.3	i	-3.6	0.671	.	6.9	6.0
CCCc1cc(=O)[nH]c(SCC(=O)N(C)CC(=O)Nc2ccc(C)cc2)n1	3.1	.	.	0.698	-4.6%	3.0	-1.3
CCc1nnc(NS(=O)(=O)c2ccc(NC(=O)c3ccc(Cl)cc3)cc2)s1	2.9	i	-15.2	0.696	0.9%	3.4	-1.0
More entries.
SMILES	UCH37 inh	FGF22 binding	AF4-AF9 inh	E coli growth	Vif A3G	RanGTP-Imp inh	HNF4A DNA FP
CCc1cc[n+](-c2nc([O-])sc2C=O)cc1	10.6	.	.	0.805	?	-64.0	-39.9
Cc1cc(C(=S)N2CCOCC2)c(C)n1-c1ccc(F)cc1	5.8	i	-0.7	0.694	15.6%	-3.6	0.7
Cc1ccc(C(=O)Nc2nc(=O)n(C)s2)cc1	3.4	.	.	0.626	-6.3%	-1.2	-0.6
O=c1[nH]c2ccsc2c(=O)n1CCO	1.6	i	-5.3	0.606	16.2%	1.0	0.1
O=C(Nc1ccc(OCCO)cc1)c1csc([C@H]2C[C@H](O)[C@@H](CO)O2)n1	.	i	-2.7	.	.	.	4.0
O=C(c1cc([N+](=O)[O-])ccc1Cl)N1CCc2ccccc21	0.4	i	10.2	0.628	.	0.2	-2.0
Cc1cc(C)c(OCC(=O)OC(C)C(=O)N2CCc3ccccc32)c(C)c1 (stereo unspecified)	-0.1	i	-20.3	0.634	-6.2%	3.9	2.3
Cc1c(C(=O)N/N=C/c2ccc(N(C)C)cc2)[nH]c2ccc(Cl)cc12	.	i	-2.1	.	-13.3%	-5.0	6.4
CCOc1ccc(NC(=S)Nc2cc(-c3ccccc3)[nH]n2)cc1	5.0	.	.	0.63	7.1%	-0.2	0.1
CC(=O)N(C)c1ccc(NC(=O)Nc2ccc(Cl)cc2)cc1	2.1	i	-5.7	0.585	.	-0.4	1.3
Cc1cccc2c(=O)cc(C)n(Cc3ccccc3)c12	0.1	i	-5.0	0.596	0.8%	0.1	-1.1
CCC(C)N1C(=O)CN(C2CCCCCC2)C(=O)C1c1ccccc1F (stereo unspecified)	0.4	i	-1.1	0.7	.	1.1	1.6
CN=C1S/C(=C\c2ccc(O)c(Br)c2)C(=O)N1C	3.8	i	5.2	0.642	0.1%	2.9	4.0
O=C(Nc1cccc2ncccc12)C12CC3CC(CC(C3)C1)C2	-1.8	.	.	0.72	4.8%	0.4	-3.8
O=C(CN1C(=O)C2C3C=CC(C3)C2C1=O)N1CC(=O)N(CCc2ccccc2)C(=O)C1 (stereo unspecified)	4.6	.	.	0.72	-4.0%	0.0	4.0
Cc1ccc(NC(=S)NC2CCN(Cc3ccccc3)CC2)c(C)c1	1.6	i	8.5	0.682	-0.7%	0.3	-1.0
Cc1cc(C)n(Cc2ccc(C(=O)NCCC3=CCCCC3)o2)n1	0.2	.	.	0.698	-4.4%	8.7	2.4
CCCN(C(=O)CCNC(=O)Cn1cnc2ccccc2c1=O)c1cccc(Cl)c1	1.6	.	.	0.634	.	-6.8	3.7
CC(C)C[C@H]1CNC(=S)N1C[C@H]1CCCN1C[C@H](CC(C)C)N1C[C@H](Cc2ccccc2)N(CCc2ccccc2)C1=S	.	i	1.7	.	.	.	-0.8
O=C(/C=C/c1ccc2c(c1)OCO2)N1CCN(c2ccc(Cl)cc2)CC1	0.3	i	2.4	0.696	.	-6.6	-5.6
COc1ccccc1CNC(=O)C(NS(=O)(=O)c1cccc2nsnc12)C(C)C (stereo unspecified)	0.8	i	4.5	0.663	-9.4%	-1.3	-3.1
CN(C(=O)CCc1ccccc1F)C1CCCN(Cc2ccccc2F)C1 (stereo unspecified)	3.9	i	1.7	0.665	0.1%	5.3	0.8

High-throughput results as filed in PubChem.
